# Screens: PubChem, National Center for Advancing Translational Sciences (NCATS)
# PINK1 modulator = changes PINK1 expression; PINK1 immunofluorescence, high-content cytometry, 24 h; Potency, µM (doses to about 76.6 µM), inactives show at the highest dose activation (PINK1 increase), most hits filed as activators; hit rate 0.2% among 410,000; active = well fitted activation curve with a large enough effect; inconclusive = small, poorly fitted or top-dose-only effect; inactive = flat fitted curve, though single readings scatter; cell line not stated here;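 also: % of control where 0% means no effect; nearly all actives have a fitted effect of over 65% in size; a mitochondrial uncoupler was the plate control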
#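 Compound titrations (5 concentrations, 24 h) on a stable cell line; DMSO and CCCP controls. Endpoint: fixed-cell PINK1 immunofluorescence with mitochondrial, cell and nuclear markers, scanned by microplate cytometer.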
# Sfp PPTase inh = blocks B. subtilis Sfp PPTase activity; Q9F4F7; hit rate 3.5% among 310,000; Biochemical Sfp PPTase activity, qHTS; Potency, µM, for inactives: max response, negative = inhibition, actives largely listed as inhibitors; active = well fitted inhibition curve with a large enough effect; inconclusive = small, poorly fitted or top-dose-only effect, or another doubt; inactive = no such curve, though single readings can be large or run the other way;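 also: the enzyme is Sfp with the accession as filed and its product quenches rhodamine fluorescence; 0% = enzyme reaction without inhibitor and -100% = no enzyme wells; top concentration of the series not given in the record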
#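 After 15 min at room temperature with compound, 15 nM Sfp received 5 uM rhodamine-CoA plus 12.5 uM BHQ-2-ybbR (50 mM Hepes pH 7.6, 10 mM MgCl2). Rate came from the fluorescence difference over 30 min, ex 525/em 598 nm.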
# * = called active by the depositor; ? = inconclusive; & = joins results of further samples; [ ] = another dose, or the depositor's remark. Potency is read from the fitted curve at half-maximal effect.
# The line under a structure holds: PINK1 modulator | Sfp PPTase inh
- O=C(c1csnn1)N1CCC2(CC1)CN(C(c1ccccc1)c1ccccc1)C2
    -0.1% | 2.5%
- CS(=O)(=O)N1CCC2(CCCN(C(=O)Nc3cccc(F)c3)C2)CC1
    -0.7% | 16.8%
- O=C(c1ccco1)N1CCC2(CCCN(c3cccc(-c4ccccc4)c3)C2)CC1
    -0.7% | -22.0%
- Cn1cccc1C(=O)N1CCC2(CC1)CN(c1ccncc1)C2
    0.9% | 6.6%
- FC(F)(F)c1ccccc1-c1ccc2ncnc(N3CCOCC3)c2c1
    -0.3% | -13.4%
- CN(Cc1ccco1)c1cc(-c2cccnc2)ncn1
    0.6% | -8.0%
- COCC(=O)N1CCC2(CCCN(C(=O)Nc3cccc(C#N)c3)C2)CC1
    -0.8% | 10.2%
- Cc1noc(C)c1C(=O)N1CCC2(CCN(Cc3nccs3)CC2)CC1
    0.5% | 2.0%
- COc1ccc(-c2nc3cnc(N4CCNCC4)nc3n(Cc3cccs3)c2=O)cc1
    3.6% | ?
- CC(=O)N1CCC2(CCCN(c3ccncc3)C2)CC1
    -1.2% | 15.0%
- O=c1c(-c2cccc(F)c2)nc2cncnc2n1-c1ccccc1
    2.5% | 24.0%
- O=C(c1cccc(F)c1)N1CCC[C@@]2(CCN(Cc3ccccc3)C2)C1
    -0.8% | 9.0%
- CC(=O)OCC1OC(Oc2cc(OC(C)=O)c3c(=O)cc(-c4ccc(OC(C)=O)cc4)oc3c2)[C@@H](OC(C)=O)C(OC(C)=O)C1OC(C)=O (stereo partly specified)
    3.8% | 26.3%
- COc1ccc(Oc2ncc3nc(-c4ccc(Cl)cc4)c(=O)n(C4CC4)c3n2)cc1
    2.1% | 12.7%
- CC(C)CC(NC(=O)OCC1c2ccccc2-c2ccccc21)C(=O)O (stereo unspecified)
    1.1% | 12.7%
- C/C1=C/CC(C)(C)/C=C/C/C(C)=C/CC1
    -0.8% | 13.3%
- Cc1cnc(CNc2ccnc(-c3ccc(C(=O)N(C)C)cc3)n2)cn1
    -0.3% | -7.7%
- COc1ccccc1CNc1ccnc(-c2cccnc2)n1
    1.8% | -21.8%
- COc1ccc(CNc2cc(-c3ccccc3Cl)ncn2)c(OC)c1
    1.2% | 26.2%
- COCCNc1nc(-c2ccccc2CN(C)C)nc2ccccc12
    -1.2% | 4.0%
- COc1ccccc1CNc1ccnc(-c2ccc(C(=O)N(C)C)cc2)n1
    -0.1% | -0.1%
- CNc1nc(-c2ccccc2C(F)(F)F)nc2ccccc12
    -0.3% | 11.7%
- COc1ccc(NC(=O)N2CCCC3(CCN(C(=O)c4c(C)noc4C)CC3)C2)cc1
    0.7% | 34.2%[activator]
- COc1ccc(NC(=O)N2CC3(CCN(C(=O)c4cccc(F)c4)CC3)C2)cc1
    -0.9% | 9.7%
- Cn1cc(-c2nc3cncnc3n(Cc3ccc(F)cc3)c2=O)c2ccccc21
    4.3% | 15.0%
- COc1ccc(C(=O)N2CCC3(CCN(CC(C)C)CC3)CC2)cc1
    -0.4% | 30.8%[activator]
- CC(C)CN1CCC2(CC1)CCN(S(=O)(=O)c1ccccc1)CC2
    0.5% | 25.1%
- COc1ccc(Oc2ncc3nc(C)c(=O)n(C)c3n2)cc1
    -0.6% | 15.9%
- O=C(c1cnccn1)N1CCC2(CCN(Cc3ccncc3)CC2)CC1
    -0.8% | 8.5%
- COc1cccc(-c2cncnc2-n2ccnc2)c1
    -0.6% | -16.6%
- CC(C)=CCc1c2c(c(O)c3c(=O)c(O)c(-c4ccccc4)oc13)C=CC(C)(C)O2
    ? | ?
- COc1ccc(C(=O)N2CCC3(CCCN(c4ccccc4)C3)CC2)cc1
    -0.5% | -2.4%
- COCCn1c(=O)c(-c2cc(F)cc(F)c2)nc2cnc(Oc3cccc(Cl)c3)nc21
    0.3% | -0.3%
- Cc1nc2cnc(N(C)C)nc2n(C)c1=O
    -1.0% | 15.7%
- COc1ccc2[nH]cc(CCNc3ccnc(-c4cccc(NS(C)(=O)=O)c4)n3)c2c1
    -1.6% | 2.4%
- N#Cc1cccc(-c2cncnc2-n2ccnc2)c1
    -1.5% | ?
- Cc1ccc(C(=O)Nc2ccc(S(=O)(=O)O)c3cc(S(=O)(=O)O)cc(S(=O)(=O)O)c23)cc1NC(=O)c1cccc(NC(=O)Nc2cccc(C(=O)Nc3cc(C(=O)Nc4ccc(S(=O)(=O)O)c5cc(S(=O)(=O)O)cc(S(=O)(=O)O)c45)ccc3C)c2)c1
    -0.1%&1.3% | -2.7%&57.1%&27.4%
- COc1ncc2nc(-c3cn(C)c4ccccc34)c(=O)n(Cc3ccc(F)cc3)c2n1
    1.5% | 8.4%
- COc1cccc(-c2nc(N(C)C)c3ccccc3n2)c1
    0.2% | -28.4%
- COc1ccccc1CNc1ccnc(-c2ccccc2Cl)n1
    3.9% | 7.3%
- c1csc(CNc2nc(-c3ccoc3)nc3ccccc23)c1
    0.3% | ?
- COC1C(O)C(CO)OC1n1cnc2c(=O)[nH]c(N)nc21 (stereo unspecified)
    0.4% | 14.3%
- c1ccc(C(c2ccccc2)N2CC[C@@]3(CCCNC3)C2)cc1
    1.7% | -11.7%
- Cc1cnc(CNc2ncncc2-c2ccc(C(=O)N(C)C)cc2)cn1
    0.1% | -5.7%
- CC(C)NC(=O)N1CCCC2(CCN(C(=O)c3cc(C(F)(F)F)cc(C(F)(F)F)c3)CC2)C1
    0.1% | 17.1%

# Part of the list above in order of formula weight, high to low.
# The line under a structure holds: PINK1 modulator | Sfp PPTase inh
- COc1ccccc1CNc1ccnc(-c2ccccc2Cl)n1
    3.9% | 7.3%
- c1csc(CNc2nc(-c3ccoc3)nc3ccccc23)c1
    0.3% | ?
- c1ccc(C(c2ccccc2)N2CC[C@@]3(CCCNC3)C2)cc1
    1.7% | -11.7%
- COC1C(O)C(CO)OC1n1cnc2c(=O)[nH]c(N)nc21 (stereo unspecified)
    0.4% | 14.3%

# Five of the compounds above, with the structure last:
PINK1 modulator	Sfp PPTase inh	mol
0.3%	-0.3%	COCCn1c(=O)c(-c2cc(F)cc(F)c2)nc2cnc(Oc3cccc(Cl)c3)nc21
0.3%	?	c1csc(CNc2nc(-c3ccoc3)nc3ccccc23)c1
-1.6%	2.4%	COc1ccc2[nH]cc(CCNc3ccnc(-c4cccc(NS(C)(=O)=O)c4)n3)c2c1
0.4%	14.3%	COC1C(O)C(CO)OC1n1cnc2c(=O)[nH]c(N)nc21 (stereo unspecified)
1.7%	-11.7%	c1ccc(C(c2ccccc2)N2CC[C@@]3(CCCNC3)C2)cc1

# Next section.
# The line under a structure holds: PINK1 modulator | Sfp PPTase inh
- COc1ccc2[nH]cc(CCNc3ncnc4ccc(-c5ccccc5CN(C)C)cc34)c2c1
    0.2% | -19.3%
- COc1cccc(Cn2c(=O)cnc3cncnc32)c1
    3.2% | -3.9%
- COc1ccc2[nH]cc(CCNc3ncnc4ccc(-c5ccccc5C#N)cc34)c2c1
    0.1% | 14.9%
- N#CCCn1c(=O)c(-c2ccc(Cl)cc2)nc2cnc(N3CCOCC3)nc21
    -0.2% | 19.8%
- COc1ccc2[nH]cc(CCNc3cc(-c4c(C)noc4C)ncn3)c2c1
    0.1% | -17.7%
- CN(C)Cc1ccccc1-c1ccc2ncnc(NCc3ccccc3)c2c1
    -1.2% | -3.7%
- Cc1nc2cnc(N3CCN(C)CC3)nc2n(Cc2cccs2)c1=O
    0.4% | -7.9%
- CN1CCN(c2ccnc(-c3ccoc3)n2)CC1
    -0.2% | 79.4µM*
- COc1cccc(Cn2c(=O)c(-c3cccc(F)c3)nc3cncnc32)c1
    0.7% | ?
- O=c1c(-c2cc(F)cc(F)c2)nc2cnc(N3CCNCC3)nc2n1Cc1cccs1
    -1.4% | 35.5µM*
- CC1(C)CC2/C(CO)=C/C=C/[C@](C)(O)CC[C@]21O (stereo partly specified)
    0.6% | 8.0%
- CN(Cc1ccco1)c1ccnc(-c2cccc(C#N)c2)n1
    -0.5% | ?
- COc1ccc(Oc2ncc3nc(-c4ccc(F)cc4)c(=O)n(C[C@H]4CCCO4)c3n2)cc1
    3.3% | 0.5%
- CCNc1ncc2ncc(=O)n(CCc3ccccc3)c2n1
    -1.0% | 9.5%
- N#Cc1cccc(-c2ccc3ncnc(NCc4cccnc4)c3c2)c1
    2.3% | -11.8%
- COc1ccccc1-c1ccc2ncnc(N3CCOCC3)c2c1
    0.5% | -0.5%
- COc1ccc(NC(=O)N2CCC3(CC2)CCN(S(C)(=O)=O)CC3)cc1
    -0.7% | 23.9%
- COc1ccc(C(=O)N2CCC3(CCCN(Cc4ccncc4)C3)CC2)cc1
    -0.1% | 16.6%
- COc1ccc(-c2nc3cnc(N4CCNCC4)nc3n(Cc3cccc(OC)c3)c2=O)cc1
    13.6% | ?
- CS(=O)(=O)N1CCC2(CC1)CN(c1ccccc1)C2
    0.0% | 6.6%
- Cn1cccc1C(=O)N1CCC2(CCCN(c3cccc(-c4ccccc4)c3)C2)CC1
    -0.7% | -14.5%
- O=C(Oc1ccccc1)N1CCC2(CC1)CCN(c1ccncc1)CC2
    0.5% | 13.6%
- CS(=O)(=O)N1CCC2(CCCN(c3ncccn3)C2)CC1
    -0.5% | 8.1%
- N#Cc1cccc(-c2nc(NCc3cccs3)c3ccccc3n2)c1
    4.5% | 5.0%
- O=c1c(CCc2ccccc2)nc2cnc(N3CCNCC3)nc2n1Cc1cccs1
    0.4% | -23.8%
- COCCn1c(=O)c(C)nc2cnc(Oc3ccccc3)nc21
    -0.1% | 6.4%
- COC(=O)N1CCC2(CC1)CCN(C(c1ccccc1)c1ccccc1)CC2
    0.2% | 13.7%
- COCC(=O)N1CCC2(CCCN(Cc3ccccc3)C2)CC1
    0.3% | 24.0%
- CC(C)CCCC(C)C1CCC2C3CC=C4CC(O)CC[C@@]4(C)C3CC[C@@]12C (stereo partly specified)
    -0.6% | 12.2%
- O=C(OC1Cc2c(O)cc(O)cc2OC1c1cc(O)c(O)c(O)c1-c1c(C2Oc3cc(O)cc(O)c3CC2OC(=O)c2cc(O)c(O)c(O)c2)cc(O)c(O)c1O)c1cc(O)c(O)c(O)c1 (stereo unspecified)
    -1.3% | 44.7µM*
- O=C(Oc1ccccc1)N1CCC2(CC1)CN(c1ccncc1)C2
    -0.5% | 6.1%
- COc1ccc(CNc2nc(-c3cccnc3)nc3ccccc23)c(OC)c1
    -0.3% | -24.8%
- COc1ccc(CNc2ncnc3ccc(-c4ccccc4C#N)cc23)c(OC)c1
    5.0% | -15.2%
- Cc1noc(C)c1C(=O)N1CCC2(CCN(Cc3ccc(C#N)cc3)CC2)CC1
    0.2% | -0.9%
- O=C(c1cnccn1)N1CCC2(CCCN(c3ccccc3)C2)CC1
    -0.2% | 12.6%
- COc1ncc2nc(-c3cccs3)c(=O)n(Cc3ccc(F)cc3)c2n1
    0.4% | -9.4%
- COC(=O)/C(=C1\OC(=O)C(c2ccccc2)C1=O)c1ccccc1 (stereo unspecified)
    1.9% | 27.1%
- COc1cc2c(cc1O)C(Cc1ccc(O)cc1)N(C)CC2 (stereo unspecified)
    0.0% | -2.1%
- NCCC(=O)N[C@H](Cc1cnc[nH]1)C(=O)O
    0.7% | 1.4%
- CN(C)c1ncc2nc(-c3ccccc3)c(=O)n(CCC#N)c2n1
    -0.6% | 2.0%
- Cc1noc(C)c1C(=O)N1CCC2(CCCN(Cc3ccccc3)C2)CC1
    0.0% | 1.9%
- FC(F)(F)c1cc(CN2CC[C@@]3(CCCNC3)C2)cc(C(F)(F)F)c1
    4.1% | 12.1%
- O=S(=O)(c1ccccc1)N1CCC2(CC1)CN(Cc1nccs1)C2
    -0.3% | 5.7%
- COC(=O)N1CCC[C@@]2(CCN(c3ncccn3)C2)C1
    0.1% | 16.8%
- COc1cccc(-c2nc(NC3CC3)c3ccccc3n2)c1
    0.1% | -15.5%

# Sorted by the number under PINK1 modulator (smallest number first): 3 from the list above.
compound | PINK1 modulator
Cn1cccc1C(=O)N1CCC2(CCCN(c3cccc(-c4ccccc4)c3)C2)CC1 | -0.7%
Cc1cnc(CNc2ncncc2-c2ccc(C(=O)N(C)C)cc2)cn1 | 0.1%
COC(=O)/C(=C1\OC(=O)C(c2ccccc2)C1=O)c1ccccc1 (stereo unspecified) | 1.9%

# Next section
# The line under a structure holds: PINK1 modulator | Sfp PPTase inh
- Cc1cnc(CNc2ccnc(-c3ccoc3)n2)cn1
    2.7% | ?
- COC(=O)N1CCC2(CC1)CN(c1ccccc1)C2
    -0.4% | 0.0%
- O=c1cnc2cnc(N3CCOCC3)nc2n1C[C@H]1CCCO1
    1.2% | 19.9%
- CCC(/C=C/C(C)C1CCC2C3CCC4=CC(=O)CC[C@@]4(C)C3CC[C@@]12C)C(C)C (stereo partly specified)
    -0.2% | 5.0%
- COc1ccc(NC(=O)N2CC3(CCNCC3)C2)cc1
    -0.3% | -0.1%
- O=c1cnc2cnc(Oc3cccc(Cl)c3)nc2n1C1CC1
    -1.0% | 22.9%
- O=c1cnc2cnc(N3CCNCC3)nc2n1Cc1cccs1
    -0.5% | -1.8%
- O=C(c1ccco1)N1CCC2(CCCN(c3ccncc3)C2)CC1
    -0.4% | -4.1%
- CCNc1ncc2nc(-c3cc(F)cc(F)c3)c(=O)n(CCC#N)c2n1
    0.1% | 11.4%
- CN(C)c1ncc2ncc(=O)n(Cc3cccs3)c2n1
    -0.2% | 1.2%
- COc1ccccc1CN1CCC2(CC1)CCN(C(=O)c1ccncc1)CC2
    -0.7% | -1.8%

# A portion of the library; rates above refer to the full screens.
